T cruzi repl: T. cruzi replication inhibition; inhibition, % (no concentration beside the values); 300,000 compounds, 1.4% hits; T. cruzi beta-gal in NIH3T3, luminescence, 90 h;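 active means mean inhibition across valid replicates above about 55%, limit read from the data; inconclusive means mean below that limit but half or more replicates reach it; inactive means mean below it, under half of replicates reach it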;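 further: signal also drops with host cell toxicity which is not excluded here; 0% = plate median of DMSO wells and 100% = zero luminescence signal; higher percent means less beta-gal luminescence so fewer parasites; stock transfer was 50 nL into about 50 µL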
Beta apoptosis: blocks beta cell apoptosis; INS-1E cytokine-induced death, ATP luminescence, 48 h; percent of positive-control rescue, neutral wells zero; protection from apoptosis, % (test concentration not listed); 300,000 compounds, 0.8% hits;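 active means all replicates at 75% or more, or half of them and the mean; inconclusive means half reach 75% but not the mean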;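 further: 0% = cytokine-treated negative control wells and 100% = positive control rescue; higher means more ATP so stronger rescue from cytokine killing; wells of about 40 µL received 100 nL stock; the first replicate is given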
Bfl-1 A1 inh: inhibitors of the anti-apoptotic protein A1, read as caspase activation | MEF A1-2A-BIM cells, Caspase-Glo 3/7 luminescence, 3 h; percent of clofoctol response, vehicle zero | caspase activation, % (test concentration not listed) | 330,000 compounds, 0.066% hits | AID 2462;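 active means over half of replicate activation scores above 10%, or exactly half above 10 with the replicate mean above 10; inconclusive means replicate mean below 10 yet half the replicates above 10; inactive means over half of replicates below 10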;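 further: wells of about 30 µL received 50 nL stock; many hits fall short of the cut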
FGF22 binding: shifts melting point of recombinant human FGF22 | Q9HCT0 | calls only at 9.99 µM | recombinant FGF22 thermal shift, SYPRO orange fluorescence; percent of sucrose octasulfate shift, DMSO zero | AID 651658 | 340,000 compounds, 1.5% hits;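 active means melting point raised past a set limit in the mean and every replicate; inconclusive means no clear call; three in four hits are not shown here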
Target sequence (Q9HCT0 whole entry, looked up): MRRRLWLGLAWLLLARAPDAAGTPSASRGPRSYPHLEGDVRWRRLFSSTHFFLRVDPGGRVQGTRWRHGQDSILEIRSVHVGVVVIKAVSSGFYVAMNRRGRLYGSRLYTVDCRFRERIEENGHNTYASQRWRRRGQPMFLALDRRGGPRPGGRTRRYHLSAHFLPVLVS
Ecoli growth: blocks Escherichia coli growth. OD600, 23 h; stronger effect = lower value. AID 1053175. OD600 absorbance (test concentration not listed). 330,000 compounds, 0.21% hits;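 active means OD600 absorbance below the run mean of sample wells minus 3.6 SD, in any replicate, cut at about 0.56 in these data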;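 further: stock transfer was 300 nL into about 60 µL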
UCH37 inh: human UCH37 deubiquitinating enzyme inhibition; purified proteasome/UCH37, Ub-AMC cleavage fluorescence; AID 588478; 330,000 compounds, 0.33% hits; inhibition, % (concentration not given with the values); Q9Y5K5;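 active means mean of two replicates above 20%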;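 further: 0% = compound-free wells with enzyme and 100% = wells lacking proteasome; stock transfer was 100 nL into about 20 µL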
Target sequence (Q9Y5K5 whole entry, looked up): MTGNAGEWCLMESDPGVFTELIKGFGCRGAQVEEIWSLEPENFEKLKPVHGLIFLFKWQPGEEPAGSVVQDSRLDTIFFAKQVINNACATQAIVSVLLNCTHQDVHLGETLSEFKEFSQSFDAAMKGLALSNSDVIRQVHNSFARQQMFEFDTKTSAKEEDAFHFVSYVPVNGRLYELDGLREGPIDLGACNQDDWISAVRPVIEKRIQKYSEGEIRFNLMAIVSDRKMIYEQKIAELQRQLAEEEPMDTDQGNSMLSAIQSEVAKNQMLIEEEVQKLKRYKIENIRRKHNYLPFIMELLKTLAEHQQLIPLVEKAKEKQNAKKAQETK
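System: Proteasome-associated human UCH37 deubiquitinase; Input: 0.15 nM proteasome in added enzyme buffer; Also added: Ub-AMC substrate from 1 µM stock; Incubation: 30 min compound-proteasome preincubation then 25 min substrate reaction, room temperature; Detection: fluorescence, ex 355 nm, em 460 nm; Read-out: % inhibition of Ub-AMC cleavage fluorescence; Benchmarks: no-proteasome and no-compound wells.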
Ecoli rRNA inh: inhibits bacterial ribosomal RNA function over humanized ribosomes. 350,000 compounds, 1.6% hits. E. coli WT GFP vs humanized-ribosome RFP mutants, fluorescence, 24 h; stronger effect = lower value; DMSO median 0, no signal -100. GFP signal change (wild-type ribosome), % (test concentration not listed). AID 720706;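 active means significant combined selectivity score with lowered wild-type GFP, culture density cut under 30%, mutant RFP and density less affected; inactive means any of these conditions unmet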; further: one replicate is shown; some compounds called inactive have numbers as strong as hits
MLL AF4-AF9 inh: inhibitors of human MLL-AF4/AF9 interaction; AlphaScreen, biotin-AF4 peptide binding to FLAG-AF9; inhibition, % at 10 µM; 350,000 compounds, 0.47% hits; AID 651704;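 active means every replicate reaching a set inhibition limit, whatever the replicate mean, cut at about 25% in these data; inconclusive means mean inhibition reaches that limit but some replicates miss it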;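 further: 0% = plate neutral control median and 100% = total signal loss; the record names both 10 and 1 µM as test concentration; the first replicate is given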
Target sequence (P42568 whole entry, looked up): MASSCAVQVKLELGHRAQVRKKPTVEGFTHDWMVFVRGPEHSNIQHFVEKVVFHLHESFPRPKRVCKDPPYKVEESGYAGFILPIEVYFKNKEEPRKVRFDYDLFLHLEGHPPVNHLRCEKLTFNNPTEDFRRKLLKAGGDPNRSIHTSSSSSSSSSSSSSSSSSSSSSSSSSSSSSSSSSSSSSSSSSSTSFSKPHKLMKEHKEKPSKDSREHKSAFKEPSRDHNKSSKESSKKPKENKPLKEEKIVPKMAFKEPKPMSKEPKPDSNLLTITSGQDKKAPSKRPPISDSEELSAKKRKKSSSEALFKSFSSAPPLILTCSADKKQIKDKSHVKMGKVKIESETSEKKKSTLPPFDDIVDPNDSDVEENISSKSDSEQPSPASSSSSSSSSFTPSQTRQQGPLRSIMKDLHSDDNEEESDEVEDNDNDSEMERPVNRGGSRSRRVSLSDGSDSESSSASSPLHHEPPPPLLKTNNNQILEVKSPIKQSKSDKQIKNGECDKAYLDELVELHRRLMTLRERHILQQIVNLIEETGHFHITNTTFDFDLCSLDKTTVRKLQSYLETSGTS
Ecoli rRNA inh OD600: second read-out of Ecoli rRNA inh, no call of its own (marks repeat the call); OD600 change, %; measured here: OD600 growth;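 optical density of the mix in the first replicate; 0 = DMSO median and -100 = no signal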
Ecoli rRNA inh RFP: also measured in Ecoli rRNA inh; calls as there; RFP signal change, %; measured here: RFP humanized mutant strains;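 first replicate; 0 = DMSO median and -100 = no signal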
* hit, by the source's call; i = inactive; ? = inconclusive; . = no result given. These rows are one share of the data; rates above refer to the full screens.

SMILES	T cruzi repl	Beta apoptosis	Bfl-1 A1 inh	FGF22 binding	Ecoli growth	UCH37 inh	Ecoli rRNA inh	Ecoli rRNA inh OD600	Ecoli rRNA inh RFP	MLL AF4-AF9 inh
CC(C(=O)NC1CCCC1)N(Cc1ccco1)C(=O)c1snc(C(=O)NC2CCCC2)c1N (centres undefined)	6	5	0.5	.	0.64	-69	.	.	.	.
COC(=O)c1ccc(C2C(Oc3ccc(OC)cc3)C(=O)N2CCc2ccc(OC)c(OC)c2)cc1 (centres undefined)	2	2	0.2	.	0.68	1.5	.	.	.	.
Cc1nc(SCC(=O)N2CC(=O)Nc3ccccc32)c2c(C)c(C)sc2n1	5	6	-0.1	i	0.71	5.8	-5	5	-1.2	-0.3
N#CC1=C2Nc3ccccc3N2C(=O)NC1(c1ccccc1)C(F)(F)F (centres undefined)	2	3	1.3	.	0.73	-2.4	.	.	.	.
CCN(CC)CCOC(c1ccccc1)c1ccc(C)cc1 (centres undefined)	3	0	0.2	i	0.7	4.9	0	-14	4.3	0.9
NC(=O)c1ccc[n+](CCC[n+]2cccc(C(N)=O)c2)c1	-5	-4	0.7	i	0.68	0.8	14	20	-0.4	1.1
O=C(Nc1ccccc1C(=O)O)c1cccc(S(=O)(=O)Nc2ccc(Br)cc2)c1	-5	-2	-0.6	i	0.66	-0.9	-24	-30	2.9	-0.7
O=C(COC(=O)c1cc(S(=O)(=O)N2CCCCC2)ccc1N1CCOCC1)c1ccccc1	15	-7	1.7	i	.	.	-4	-6	3.8	-11
Cc1cc(-c2nnc(CCC(=O)N(C)Cc3ccsc3)o2)no1	-9	0	0.0	i	0.7	3.8	7	9	1.7	-1.0
COc1cc2c(cc1OC)C(SC)=NC1(CCCC1)C2	-15	-10	-0.6	i	0.66	1.4	.	.	.	1.1
COc1ccc(C(=O)c2nc3c(n2O)CCCC3)cc1OC	-2	2	0.1	.	0.72	11	.	.	.	.
O=C(COc1ccccc1)NNC(=S)NC(=O)c1ccccc1	-9	-6	0.2	i	0.6	5.4	-15	-11	-9.2	-11
O=C(COc1ccccc1Cl)N1CCc2ccccc2C1	8	1	0.2	i	0.6	-0.5	-5	-4	-0.8	-10
O=S(=O)(Nc1ccc(S(=O)(=O)Nc2ccccc2)cc1)c1ccccc1	7	-8	0.2	.	0.68	0.6	.	.	.	.
Cc1ccc(-c2nnc(N3CCOCC3)c3ccccc23)cc1S(N)(=O)=O	7	.	0.5	i	0.68	4.2	-10	-13	4.5	0.3
Cc1noc(C(=O)NCc2ccc(F)cc2)c1Cl	-13	-7	1.2	i	0.69	6.5	8	4	-0.4	9.3
COc1ccc(N2CCN(C(=O)c3cc4cc(Cl)ccc4[nH]3)CC2)cc1	1	0	-1.3	i	0.71	-1.8	4	4	0.1	0.0
O=C(NCCC(=O)N1CCC2(CC1)NCCc1[nH]cnc12)c1cccc(Br)c1	11	2	1.5	i	0.64	2.0	4	2	-1.6	1.2
O=C(CSc1ncn[nH]1)Nc1ccc(S(=O)(=O)Nc2ncccn2)cc1	-21	-1	-1.7	i	0.64	-0.5	1	0	0.0	0.2
COc1ccc(Cl)cc1N(CC(=O)NC1CC1)S(=O)(=O)c1ccc(C)c([N+](=O)[O-])c1	14	0	-0.6	i	0.74	-1.8	21	15	2.7	1.6
CCOC(=O)N1CCN(C(=O)CCc2c(C)nc3c(c(C)nn3-c3ccc(C)c(C)c3)c2C)CC1	24	6	0.3	.	0.7	-37	.	.	.	.
CC(=O)c1sc(NC(=O)CS(=O)(=O)c2ccccc2)nc1C	1	-10	1.1	i	0.65	9.4	7	9	0.7	-0.6
CC(SCc1cc(=O)n2c([nH]c3ccccc32)c1C#N)C(=O)O (centres undefined)	-23	-6	0.1	.	0.72	-23	6	-6	4.8	-1.8
O=C(Nc1nnc(-c2ccccc2)o1)Nc1ccccc1Cl	-14	-4	0.1	i	0.74	2.5	2	1	0.5	-4.7
COc1ccc(C(=O)NC(Nc2ccccc2)C(Cl)(Cl)Cl)cc1 (centres undefined)	2	5	0.2	.	0.66	0.5	.	.	.	.
CSc1ccc(S(=O)(=O)NCC(=O)OCC(=O)N(C)C2CCCCC2)cc1[N+](=O)[O-]	-9	-2	-0.5	i	0.64	2.4	11	14	2.8	-0.4
CC(=O)Nc1ccc(NC(=O)c2ccccc2N(Cc2ccccc2)S(C)(=O)=O)cc1	1	-11	-0.3	i	0.67	2.4	24	36	2.5	-1.9
Cc1ccc(C2C(N)C(=O)N2c2ccc(C)cc2)cc1 (centres undefined)	-4	-1	0.9	i	0.71	1.0	-6	-8	-0.3	1.1
CCOc1cc(N2CCOCC2)c(OCC)cc1NC(=O)Cc1ccc(OC)c(OC)c1	0	3	-0.7	.	0.68	3.0	.	.	.	.
COc1ccc(CNC(=O)c2cccc(C)c2[N+](=O)[O-])cc1	6	-8	-0.3	i	0.71	4.1	.	.	.	-3.4
O=S1(=O)N=C(N(CCO)/N=C/c2ccccc2)c2ccccc21	-6	.	.	i	.	.	-17	-16	-1.3	-2.0
O=c1ccn(Cc2ccccc2)c(=O)n1Cc1ccccc1	6	-3	0.4	.	0.73	-6.3	.	.	.	.
O=C(COC(=O)Cc1ccccc1F)NCc1ccc(Cl)cc1	.	-4	-1.3	i	0.69	4.5	-2	-18	-2.8	-1.9
CC1CN(S(=O)(=O)c2cccc(C(=O)Nc3cc(Cl)ccc3N3CCOCC3)c2)CC(C)O1 (centres undefined)	.	2	0.6	i	0.7	-2.5	0	-4	12	0.9
COc1ccc(Br)cc1CN(C)CC(=O)Nc1cc(Cl)ccc1Cl	8	10	0.9	.	0.73	5.8	.	.	.	.
Cc1ccc(N2CC(C(=O)NCc3ccco3)CC2=O)cc1Cl (centres undefined)	-10	-3	0.1	i	0.68	2.7	-2	-7	-2.6	-0.9
NC(=O)c1ccccc1NC(=O)CCn1c(=S)oc2ccccc21	-2	.	1.1	i	0.68	2.9	9	4	-11	-0.6
CS(=O)(=O)c1nc(-c2ccc(F)cc2)cc(C(F)(F)F)n1	?	.	.	i	0.67	2.5	-34*	-5.0*	1.4*	3.2
COc1ccc(C2C(C(=O)N3CCCC3)CC(=O)N2c2ccc(OC)cc2)cc1 (centres undefined)	5	2	-0.1	.	0.72	2.5	.	.	.	.
O=C(OCC(=O)c1c[nH]c2ccccc12)C1=COCCO1	2	0	-0.4	.	0.68	5.5	.	.	.	.
O=C(NCc1ccccc1Cl)C(=O)NCC1OCCN1S(=O)(=O)c1cccs1 (centres undefined)	1	3	0.6	i	0.7	0.8	5	0	4.3	-3.8
C=CCn1c(=NC(=O)C2CC2)sc2cc(NC(C)=O)ccc21	0	-5	-0.3	i	0.71	-22	12	12	1.2	2.5
COCCn1cnc2c1c(=O)n(CC(=O)OCC(=O)NCC(F)(F)F)c(=O)n2Cc1ccccc1	-2	-4	1.0	.	0.66	0.9	.	.	.	.
CC(=O)C1CCCN(C(=O)c2ccc3oc(CCc4ccccc4)nc3c2)C1 (centres undefined)	-3	1	-0.3	i	0.67	2.4	-10	-8	-2.3	-3.0
CCOc1cc(N2CCOCC2)c(OCC)cc1NC(=O)c1cc(S(=O)(=O)N2CCOCC2)ccc1Cl	.	.	.	i	0.71	2.4	9	3	0.7	6.2
COC(=O)c1c(SCc2cccc3ccccc23)nc(=O)[nH]c1C	12	-2	-0.4	i	0.68	1.3	-4	-8	13	-2.9
Nc1nc(N)nc(-c2ccc(Cl)cc2)n1	-24	6	-1.0	.	0.58	2.1	.	.	.	.
COc1cc(C(=O)ON=C2C(C)=CC(=O)C=C2C)cc(OC)c1OC	-23	-5	-6.0	.	0.74	0.4	.	.	.	.
O=C(COC(=O)c1ccco1)Nc1ccccc1[N+](=O)[O-]	4	1	0.6	i	0.69	1.7	2	-4	-3.8	0.9
COc1cccc(CN2CCN(C3CCOCC3)CC2CCO)c1 (centres undefined)	6	.	.	i	0.67	2.5	5	2	-2.9	4.5

A section from further up, for reference:
SMILES	T cruzi repl	Beta apoptosis	Bfl-1 A1 inh	FGF22 binding	Ecoli growth	UCH37 inh	Ecoli rRNA inh	Ecoli rRNA inh OD600	Ecoli rRNA inh RFP	MLL AF4-AF9 inh
CC(C(=O)NC1CCCC1)N(Cc1ccco1)C(=O)c1snc(C(=O)NC2CCCC2)c1N (centres undefined)	6	5	0.5	.	0.64	-69	.	.	.	.
COC(=O)c1ccc(C2C(Oc3ccc(OC)cc3)C(=O)N2CCc2ccc(OC)c(OC)c2)cc1 (centres undefined)	2	2	0.2	.	0.68	1.5	.	.	.	.

Further entries:
SMILES	T cruzi repl	Beta apoptosis	Bfl-1 A1 inh	FGF22 binding	Ecoli growth	UCH37 inh	Ecoli rRNA inh	Ecoli rRNA inh OD600	Ecoli rRNA inh RFP	MLL AF4-AF9 inh
CCNc1nc(NCC)nc(N2CC(=O)N(CC(=O)OCC)C2=N)n1	-11	4	0.3	.	0.72	5.1	.	.	.	.
CN1CCN(NC(=O)c2c(-c3ccccc3)sc3ccccc23)CC1	.	-2	0.3	i	0.65	1.6	-7	-6	-6.1	0.0
Cc1ccc(C)c(OC(=O)c2cccnc2Cl)c1C	4	-4	-1.5	i	0.64	3.2	-18	-27	-4.2	-3.9
O=C(COc1ccc2ccccc2c1)NCCc1ccc2c(c1)OCCO2	-6	-1	-0.3	i	.	.	-27	-54	-2.4	0.5
Cc1ccccc1OCC(=O)OCC(=O)NCC1CCCO1 (centres undefined)	-8	-6	0.8	i	0.67	-0.8	7	4	-8.5	-4.0
CC(/C=C1\SC(=S)N(NC(=O)c2ccccc2C)C1=O)=C\c1ccccc1	-9	13	-1.0	.	0.74	5.3	.	.	.	.
Cc1ccc(Cl)c(NC(=O)CSc2n[nH]c(=O)n2C2CC2)c1Cl	.	-9	0.1	i	0.71	-2.8	5	8	-3.8	-11
O=C(Cn1c(=O)c(=O)n(Cc2ccccc2)c2ccc(Cl)cc21)Nc1ccc(F)cc1F	-11	-4	1.0	i	0.66	-65	9	11	-0.4	-1.1
O=S(=O)(c1ccccc1OC(F)(F)F)N1CCN(c2ccnc3cc(Cl)ccc23)CC1	47	19	0.3	i	0.74	0.2	0	-10	2.0	-1.5
Cc1cccnc1CCNC(=O)CCc1nnc(-c2ccccc2)o1	-4	-8	0.6	i	0.72	0.0	7	2	-0.7	-3.6
Cc1cc(C)n(CC(=O)N2c3ccccc3Sc3ccc(C(F)(F)F)cc32)n1	51	-2	0.6	i	0.7	-0.2	-22	-32	-6.4	3.0
O=C1CC(Nc2ccc(N3CCOCC3)cc2)C(=O)N1CCc1ccccc1 (centres undefined)	8	5	0.6	.	0.69	-1.3	.	.	.	.
COc1ccc(C(C(=O)NC2CCCC2)N(C(=O)c2ccco2)c2cccc(C(C)=O)c2)cc1OC (centres undefined)	1	-2	0.4	i	0.64	0.6	7	2	0.5	0.6

Screening data (PubChem)
